# From PubChem
# Prx2 Sm inh – Schistosoma mansoni Prx2 inhibition; S. mansoni Prx2 activity coupled to TGR/GSH (TGR is thioredoxin glutathione reductase), NADPH fluorescence loss, qHTS; some inactives read as strong as hits; Potency, µM; 65,000 tested, 0.07% active; AID 448; active means full or partial inhibition curve with a strong effect at the top dose; inconclusive means weaker partial or single-point curve; inactive means no accepted curve; further: series up to 57 µM; many of its hits are not listed in these tables
#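 Prx2 activity was followed as the loss of NADPH fluorescence (ex 365/em 450 nm), read every 30 sec for 8 min after H2O2 start. The enzyme mix (50 nM Prx2, 25 nM TGR, GSH, NADPH; pH 7.4 phosphate buffer) was incubated with compound for 15 min at room temperature first.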
# LT uptake inh – inhibitors of anthrax lethal toxin internalization; Cells, anthrax lethal toxin internalization, FRET ratio (460/530); Potency, µM (doses to about 40 µM), without a hit: top-dose activity change, negative = inhibition, most hits filed as inhibitors; 70,000 tested, 0.67% active; active = well fitted falling ratio curve with the 530 nm signal flat; inconclusive = other ratio curves, or a change in one channel alone; inactive = flat curves in the ratio and both channels; the % refers to the ratio; further: on the % scale 0 is the no-effect control and ±100 the full control effect; nearly all actives have a fitted effect of over 50% in size; tested in ME-180 cells; beta-lactamase reporter
# Active calls of the source: *; ? = inconclusive; nt = not tested or not shown; & = joins results of further samples; [ ] = another dose, or the depositor's remark. Potency means the concentration at half of the fitted maximal effect.
SMILES,Prx2 Sm inh,LT uptake inh
O=C1C(C2=C(O)c3ccccc3C2=O)=Nc2ccccc21,>57,-6%
Cc1cc(O)c(C(C)C)cc1CN1CCCCC1,>57,-2%[8 µM]
COc1ccc(C(=O)N2CCN(c3nc4cc(C)ccc4cc3C#N)CC2)c(OC)c1,>57,?
COc1ccc(C(=O)c2coc3ccc(O)c(CN4CCCCC4)c23)cc1,>57,3%
CC1CCCC(NC(=O)c2ccc3c(c2)N(Cc2ccccc2)C(=O)CS3=O)C1C (centres undefined),>57,-8%
COc1ccc(OC)c([C@H]2Nc3ccccc3NC3=C2C(=O)CC(C)(C)C3)c1Br,>11,11%
CC1CCN(C(=O)CSc2nc3c(cnn3-c3ccc(Cl)cc3)c(=O)[nH]2)CC1,>57,6%
COc1ccc(C2C(C#N)=C(/N=C/N3CCN(C)CC3)OC3=C2C(=O)CC(C)(C)C3)cc1OC (centres undefined),>57,8%
COc1ccc(OC)c(NC(=O)CS(=O)(=O)Cc2nc(-c3ccccc3C)oc2C)c1,>57,?
Cc1ccc(S(=O)(=O)N=C2SCCCS2)cc1,nt,-24%
CC1=C(C(N)=O)C(c2ccccn2)n2nc(SCc3ccccc3Cl)nc2N1 (centres undefined),>57,9%
C/C=C/OC(=O)NC(c1ccccc1)[C@]1(C(C)=O)CCCC1=O (some centres undefined),nt,-4%[8 µM]
CCOc1ccc(-c2nnn(CC(=O)Nc3cc(OC)ccc3OC)n2)cc1OCC,>57,-22%
COc1cc(-c2c(C#N)c(N)nc3c2CCCC3)cc(OC)c1OC,>57,?
CCC(=O)n1nc(-c2ccc(OC)cc2)nc1N,>57,?
COCCn1nnnc1C(c1cc2ccc(OC)cc2[nH]c1=O)N1CCc2ccccc2C1 (centres undefined),>57,10%
N[C@H](Cn1cc(I)c(=O)[nH]c1=O)C(=O)O,>57,?
N#CCCN(C(=O)CN1C(=O)NC2(CCCC2)C1=O)c1ccccc1F,>57,12%
COC(=O)c1ccc(C2/C(=C(/O)c3ccc(OC)cc3)C(=O)C(=O)N2CC2CCCO2)cc1 (centres undefined),>57,-5%
Cc1cc(C(=O)NCc2ccc(S(N)(=O)=O)cc2)cs1,>57,12%
CCCc1cc(=O)n2c(nc3ccccc32)[nH]1,nt,14%
COC(=O)c1ccccc1NC(=O)n1cc(C)cn1,>57,3%
CCCCC(=O)Nc1cccc(NC(=O)c2ccc(Br)o2)c1,>57,-11%
CCOC(=O)C1(C)NC(c2cc(OC)c(OC)c(OC)c2)C2C(=O)N(CC)C(=O)C21 (centres undefined),>57,-15%
CCOC(=O)C1=C(c2ccccc2)Nc2ncnn2C1c1cc(OC)cc(OC)c1OC (centres undefined),>57,0%
CCN1CCCC1CNS(=O)(=O)c1cc(Br)cc2c1N(C(=O)C1CC1)CC2 (centres undefined),>57,0%
Cc1ccc(C(=O)Nc2cccc(C(=O)O)c2)cc1S(=O)(=O)N1CCCCC1,nt,-3%
C=CCNc1sc(C(=O)c2cccs2)c(N)c1C#N,>57,?
CNc1nc(C)nc(-n2nc(C)cc2C)n1,>57,-7%
c1csc(-c2nnsc2-c2nc3ccccc3[nH]2)c1,>57,-22%

# Structural class: the compounds so far with a halogen.
SMILES,Prx2 Sm inh,LT uptake inh
COc1ccc(OC)c([C@H]2Nc3ccccc3NC3=C2C(=O)CC(C)(C)C3)c1Br,>11,11%
CC1CCN(C(=O)CSc2nc3c(cnn3-c3ccc(Cl)cc3)c(=O)[nH]2)CC1,>57,6%
CC1=C(C(N)=O)C(c2ccccn2)n2nc(SCc3ccccc3Cl)nc2N1 (centres undefined),>57,9%
N[C@H](Cn1cc(I)c(=O)[nH]c1=O)C(=O)O,>57,?
N#CCCN(C(=O)CN1C(=O)NC2(CCCC2)C1=O)c1ccccc1F,>57,12%
CCCCC(=O)Nc1cccc(NC(=O)c2ccc(Br)o2)c1,>57,-11%
CCN1CCCC1CNS(=O)(=O)c1cc(Br)cc2c1N(C(=O)C1CC1)CC2 (centres undefined),>57,0%

# (continued)
SMILES,Prx2 Sm inh,LT uptake inh
C=CCC(O)(CCN1CCCCC1)c1ccccc1 (centres undefined),>57,-9%
CCOC(=O)c1nn(-c2ccccc2)c(C#N)c1NC(=O)c1nn(CC)cc1Br,>57,-4%
CN1CCC2(CC1)NC(=O)NC2=O,>57,-4%
O=C(O)c1ccc(COc2ccc(Cl)cc2)o1,>57,nt
CO,nt,8%
CC(=O)N(CC(C)(C)CC=C(C)C)c1ccccc1,>57,19%
COc1ccc(-c2cc(C(=O)Nc3c(C)nn(Cc4ccc(Cl)cc4)c3C)no2)cc1,>57,5%
COc1ccc(S(=O)(=O)N(CC(=O)NCc2ccco2)c2ccccc2)cc1OC,>57,5%
Cc1onc(-c2c(F)cccc2Cl)c1C(=O)N1CCCc2ccccc21,>57,?
COc1cccc(C2=NOC(C(=O)Nc3cccnc3)C2)c1 (centres undefined),>57,8%
O=C(COn1nnc2ccc(C(F)(F)F)cc21)Nc1nnc(-c2ccccc2)o1,>57,6%
N=c1ccn2c(n1)O[C@H]1[C@H](O)[C@@H](CO)O[C@H]12,>57,-3%
Cc1occc1C(=O)Nc1cc(C(F)(F)F)ccc1Cl,>57,nt
O=C(c1ccc(Br)o1)N1CCN(c2ccccc2F)CC1,>57,-23%
Cc1cc(NC(=O)C(C)(C)C)no1,>57,-7%
Cc1nc(N)sc1Cc1ccc2c(c1)OCO2,>57,-18%
COc1cc2c(=O)n(CC3CCCO3)c(=O)n(CC(=O)Nc3cccc(Cl)c3)c2cc1OC (centres undefined),>57,-1%
COCCN1C(=O)c2oc3ccccc3c(=O)c2C1c1ccc(OC)c(OC)c1 (centres undefined),>57,-4%
COCCNc1ncnc2ccc(-c3ccoc3)cc12,>57,?
CC(=O)[O-].CC(=O)[O-].O.O.O.[Pb+2],nt,-6%&-6%
OC(COc1ccc2ccccc2c1)CN1CCCC1 (centres undefined),>57,-9%
O=S(=O)(NCCCCCCc1ccccc1)c1cccc2c(Cl)cccc12,>57,?
COC(=O)c1ccc(NC(=O)Cc2ccccc2)cc1,>57,10%
Cc1ccc(N2CC(C)Cn3c2nc2c3c(=O)n(CC(=O)OCc3ccccc3)c(=O)n2C)cc1C (centres undefined),>57,?
CCN1C(=O)c2ccccc2S(=O)c2ccc(C(=O)N3CCN(C(=O)c4ccco4)CC3)cc21 (centres undefined),>57,0%
CCOc1ccc(N2CC(C(=O)Nc3ccc(F)cc3F)CC2=O)cc1 (centres undefined),>57,-19%
Cc1cc(C(=O)CSc2nnc(-c3ccco3)o2)c(C)n1-c1ccc2c(c1)OCCO2,>57,-2%
CCOC(=O)c1ccccc1NC(=O)c1ccccc1NS(C)(=O)=O,>57,-17%
CSc1ccc(S(=O)(=O)Nc2ccc(NC(C)=O)cc2)cc1,>57,6%
CCOC(=O)Cc1nn(C)c(=O)c2ccccc12,>57,-12%
CCCn1c(=O)c2ccccc2n2c(SCc3nc4ccccc4s3)nnc12,>57,1%
COc1ccc(C(=O)C(Cc2ccccc2)N(C)C)cc1 (centres undefined),>57,-9%
CCCOc1ccc(-c2nnn(CC(=O)Nc3cccc(C(=O)OC)c3)n2)cc1,>57,3%
Cc1ccc(-c2nc(-c3ccccc3)no2)c(Cl)c1,>57,?
O=C(CCC(=O)OCC(=O)c1ccccc1)NC1CCCCC1,nt,-5%
N#CC1=C(N)Oc2c(oc(CO)cc2=O)C1c1cccs1 (centres undefined),>57,-19%
CCc1ccc(N2C(=O)C3ON(c4ccccc4)C(c4ccco4)C3C2=O)cc1 (centres undefined),>57,3%
OC(c1ccc2c(c1)OCO2)c1nccc2ccccc12 (centres undefined),>57,-1%
C=CCOC(=O)c1sc(NC(=O)c2ccco2)nc1C,>57,-9%
O=C(c1ccncc1)N1CCC2(CCCN(c3ccccc3)C2)CC1,>57,?
CN(C)C(=O)c1ccc(-c2ccc3ncnc(NCCN4CCOCC4)c3c2)cc1,>57,?
O=C(CCC1COc2ccccc2O1)N1CCCC1 (centres undefined),>57,3%
Cc1ccc(N2CC(C(=O)NCc3ccccn3)CC2=O)cc1 (centres undefined),>57,0%
CCOc1ccccc1NC(=O)c1ccc2nccnc2c1,>57,13%
COc1ccc(NC2CS(=O)(=O)CC2NCc2ccco2)cc1 (centres undefined),>57,0%
CCOC(=O)CNC(=O)c1cn(CC)c(=O)c2cc(OC)c(OC)cc12,>57,11%
O=C(COc1nc2ccccc2nc1N1CCOCC1)N1CCc2ccccc21,>57,-7%
Cc1cccc2cc(CN(Cc3ccco3)C(=O)c3cccs3)c(=O)[nH]c12,>57,4%
Cc1cccc(-c2nc(CSCC(=O)N3CCN(Cc4ccc5c(c4)OCO5)CC3)c(C)o2)c1,>57,-23%
CC[C@H]1C2=C3C(CC[C@H]4C(OCc5ccc(F)cc5C(F)(F)F)OC[C@](C)([C@@H]34)N(C(=O)OC(C)(C)C)C2)C(COC(C)=O)C1COC(C)=O (some centres undefined),>57,-14%

# Pulled one by one from above (three):
SMILES,Prx2 Sm inh,LT uptake inh
COc1ccc(NC2CS(=O)(=O)CC2NCc2ccco2)cc1 (centres undefined),>57,0%
CCOc1ccccc1NC(=O)c1ccc2nccnc2c1,>57,13%
Cc1ccc(N2CC(C(=O)NCc3ccccn3)CC2=O)cc1 (centres undefined),>57,0%

# Carrying on.
SMILES,Prx2 Sm inh,LT uptake inh
CN(CC(=O)NCc1cccc(F)c1)C(=O)c1ccco1,>57,18%
CC[N+](C)(C)Cc1ccccc1Br,>57&>57,8%[3.58 µM]
COCCSc1nnc(NS(=O)(=O)Cc2ccccc2)s1,>57,-8%
CC1(C)Cc2ccccc2-c2nnc(SCC(=O)N3CCN(c4ccccc4)CC3)n21,>57,?
CSc1oc(-c2ccco2)nc1S(=O)(=O)c1ccc(Br)cc1,>57,-21%
C=CCc1ccccc1OCC(O)Cn1ccnc1C (centres undefined),nt,-14%
c1nc(NC2CCNCC2)c2cc(-c3ccoc3)ccc2n1,>57,-10%
Cc1noc(C)c1S(=O)(=O)N1CCC(C(=O)N(C)Cc2ccccc2)CC1,>57,9%
COC(=O)c1[nH]c2cc(OC)ccc2c1NC(=O)CN1CCOCC1,>57,9%
CCOC(=O)c1ccc(NC(=O)CN2CCc3ccccc3C2)cc1,>57,-29%
O=C(O)CCCNCc1ccccc1F,>57,-13%
COC[C@@H]1OC(=O)c2coc3c2[C@]1(C)C1=C(C3=O)[C@H]2CCC(=O)[C@]2(C)C[C@@H]1OC(C)=O,>57,?
Cc1ccc(NC(=O)c2nnn(-c3cc(C)cc(C)c3)c2N)cc1,>57,?
Cc1cc(C(=O)NCc2cccs2)cs1,>57,1%
CCc1c2c(nc3c(C(C)C)cccc13)-c1cccc(=O)n1C2,>57,?
COc1ccc(C(=O)Nc2nnc(C(F)(F)F)s2)cc1,>57,-8%
CCCC(c1nnnn1C(C)(C)CC)N(Cc1ccco1)Cc1cc2ccc(OC)cc2[nH]c1=O (centres undefined),>57,?
Fc1cc2ncn(Cc3ccccc3)c2cc1F,?,?
O=S(=O)(CCN(CCS(=O)(=O)C(F)(F)F)CC1CCCO1)C(F)(F)F (centres undefined),>57,3%
CCOC(=O)c1cn(CC)c2cc(N3CCSCC3)c(F)cc2c1=O,>57,10%
Cc1ccc2c(Cl)cc(Cl)c(OCC(=O)NC(=O)NCc3ccco3)c2n1,>57,-7%
N#Cc1cnc(SCC(=O)c2ccccc2)nc1N,>57,-5%
CN(c1ccc(C(=O)Nc2ccccc2C(F)(F)F)cc1)S(C)(=O)=O,>57,5%
COc1ccc(NC(=O)c2c(NC(=O)CNCc3ccco3)sc3c2CCC3)c(OC)c1,>57,?
CSCCOC(=O)C1=C(C)NC(=O)CC1c1ccccc1Cl (centres undefined),>57,13%
CCCCC(=O)Nc1ccc2c(c1)nc(CCN1CCOCC1)n2C,>57,-9%
Oc1ccc(CNc2ccccc2)c2cccnc12,15*,5%
O=c1[nH]c(=O)n(Cc2ccc(F)cc2)c(O)c1C=NCCN1CCCCC1,>57,?
c1ccc2c(c1)N1CCN=C1N2CCN1CCCCC1,>57,?
CC(=NCCCN1CCOCC1)c1c(O)n(Cc2ccccc2)c(=O)[nH]c1=O,>57,nt
CC1(C)CC(=O)c2c(nn(-c3ccccc3)c2N)C1,>57,0%
O=C(O)CCCn1nc(C(F)(F)F)c2c1CCCCC2,>57,-6%
CC(=O)NC(Cc1ccccc1F)C(=O)NC1CCN(C(=O)c2cnccn2)CC1 (centres undefined),>57,3%
CCCn1nc(C(=O)Nc2cccc(C(=O)OC)c2)c2ccccc2c1=O,>57,-5%
CCC(CC)C(=O)Nc1cc(C)cc(C)c1,>57,3%
CCOC(=O)C(C(=O)Nc1ccccn1)C1CCCCC1 (centres undefined),nt,-3%
CCOC(=O)c1nnn(-c2nonc2N)c1CN(C)C1CCCCC1,>57,-17%
COc1ccc(CCNC(=O)c2ccc(NS(=O)(=O)c3c(C)noc3C)cc2)cc1OC,>57,-3%
O=C(NCC(=O)N(Cc1ccccc1)C(C(=O)NC1CCCC1)c1ccco1)c1ccco1 (centres undefined),>57,3%
COCc1cc(C)n(CC(=O)NC(C)c2ccccc2)c(=O)c1C#N (centres undefined),>57,-6%

# A different layout for some results above:
SMILES	Prx2 Sm inh	LT uptake inh
N#CCCN(C(=O)CN1C(=O)NC2(CCCC2)C1=O)c1ccccc1F	>57	12%
Oc1ccc(CNc2ccccc2)c2cccnc12	15*	5%
CCC(CC)C(=O)Nc1cc(C)cc(C)c1	>57	3%
CCCc1cc(=O)n2c(nc3ccccc32)[nH]1	nt	14%

# Not all compounds are listed; the hit share may differ from the screen's.
